# Screening results: PubChem, Fisher Drug Discovery Resource Center
# NPYLR7 agonist = mosquito NPYLR7 agonism; HEK293T NPYLR7/Galpha15, GCaMP6s calcium fluorescence; activation, % at 10 µM; 270,000 tested, 0.15% active; AID 1259423; in the data active means activation above about 40%;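 further: 0% = vehicle and 100% = reference agonist at the receptor; some compounds past the cut are filed as inactive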
# NPYLR7 agonist max-min = second read-out of NPYLR7 agonist, no call of its own (marks repeat the call); activation, %; measured here: Max-Min RFU normalised activation; some inactives read as strong as hits;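 span of the calcium signal over five minutes; 0% = vehicle and 100% = native peptide agonist; compound fluorescence can raise it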
# An asterisk follows results filed as active; & = joins results of further samples. Only part of the results is shown. The share of hits here may be higher or lower than overall.
compound	NPYLR7 agonist	NPYLR7 agonist max-min
CCOC(=O)CCc1c(C)nc2ncnn2c1N1CCN(C(=O)COCCOC)CC1	-1.7	-0.4
CCCC(=O)N1CCC1(C)C(=O)Nc1cc(-c2ccccc2)nn1C (stereo not given)	-1.5	-2.3
CCOc1ccc(C(=O)Nn2cnc3c(cnn3-c3ccc(C)cc3)c2=O)cc1	-0.1	-2.1
Cn1c(C2CCCN(S(C)(=O)=O)C2)nn(Cc2cccc3ccccc23)c1=O (stereo not given)	-4.3	2.4
CCC(Sc1nc2ccccc2s1)C(=O)Nc1cccc2ccccc12 (stereo not given)	-0.3	-1.2
COc1ccccc1-c1nnc2n1N=C1CCCCC1S2 (stereo not given)	1.4	2.6
CSc1ncc(CC(=O)O)c(Sc2ccc(Cl)cc2)n1	2.9	1.8
CN(C(=O)COc1ccc(Br)cc1F)C1CCS(=O)(=O)C1 (stereo not given)	-6.3	3.5
NC(=O)C1CN(c2cc(C(F)(F)F)nc3ccccc23)CCN1 (stereo not given)	4.8	2.6
CCc1ccc2c(c1)C(C)(C)C1(/C=C/c3ccco3)NC(=O)CCN21 (stereo not given)	3.3	8.5
Cc1ccc(OCC2CN(C(=O)c3ccc(F)c(F)c3)CCO2)cc1 (stereo not given)	-1.5	-5.7
Cc1cc(Nc2ncc(Cl)cc2Cl)n(-c2ccccc2C)n1	1.1	0.0
O=C(CN1CCN(c2ccccc2F)CC1)N1N=C(c2ccccc2F)CC1c1ccccc1 (stereo not given)	-1.9	4.1
CC(C)c1ccccc1NC(=O)c1ccc(-n2nc(-c3ccc(Cl)cc3)cc2N)cc1	5.6	5.2
Cc1cc(N2CC(O)C2)nc(N2CC(O)C2)c1C#N	0.6	8.7
Cc1noc(C)c1C(C)C(=O)Nc1cc(-n2cccc2)ccc1F (stereo not given)	-1.4	-2.0
O=C(Cc1ccc(-c2ccccc2)cc1)Nc1cccc2c1OCCO2	-0.6	-2.1
CCc1nnc(-c2cccc(OCc3cccnc3)c2)o1	-14.4	-13.8
CNc1cc(-c2ccccc2)ncn1	2.2	1.6
O=C1CN(/N=C\c2ccc(-c3ccc([N+](=O)[O-])cc3)o2)C(=O)N1	-9.6&1.2&0.1	-13.6&-2.8&-23.3
O=C(NCCC1CCCN(Cc2ccco2)C1)c1ccc(=O)[nH]c1 (stereo not given)	13.1	3.3
Cn1cccc1C(=O)C(=O)N1CCN2CCNC(=O)C2C1 (stereo not given)	10.8	8.8
C=CCn1nnc(NC(=O)c2ccc(C)c(Cl)c2)n1	-0.3	-1.4
CC1CCCN(Cc2ccc(CNC(=O)NCc3ccncc3)cc2)C1 (stereo not given)	0.6	3.0
O=C(C1CCCC1)N(Cc1nccn1Cc1cccc(F)c1)C1CC1	5.4	12.8
CCOC(=O)C(C#N)=Cc1ccc(N(C)CCC#N)cc1	3.2	9.2
O=S(=O)(c1cccnc1)N1CC[C@@H](c2ccc3c(c2)OCO3)[C@H](O)C1	3.8	-5.5
C[C@H](NC(=O)N1CCCC1c1ccncc1)c1ccccc1 (stereo not given in full)	-3.1	-8.0
CCN(CCn1cccn1)CC1CCC(N)CC1 (stereo not given)	17.1	12.6
CCn1c(SCC(=O)N/N=C\c2ccccc2C(F)(F)F)nc2ccccc21	1.6	4.8
Cc1ccc(NC(=O)c2cc(=O)c(OCc3ccc(F)cc3)c[nH]2)cc1Cl	2.0	2.0
O=C(CN(Cc1ccco1)C1CCS(=O)(=O)C1)Nc1ccc2c(c1)CCC2 (stereo not given)	0.1	-2.2
O=C(CN1CN(c2ccccc2)C2(CCN(C(=O)c3cccc([N+](=O)[O-])c3)CC2)C1=O)NCC1CCCCC1	23.9	24.4
O=C(CSc1nnc(-c2ccco2)o1)NCCCN1CCCC1=O	9.5	9.1
CCOC(=O)Cn1c(=O)n(-c2ccccc2)c(=O)c2oc3ccccc3c21	-5.5	-7.8
C=CCN1Cc2ccccc2-c2ccccc2C1	-8.0	-20.9
CCOc1ccnc(NCc2csc(N)n2)n1	-5.2	-11.5
COC(=O)c1cc(OC)c(OC)cc1NS(=O)(=O)c1cccs1	1.8	6.8
CN(C(=O)Nc1ccccc1N1CCOCC1)C1CCc2ccccc21 (stereo not given)	-6.0	-8.0
COc1cc(F)ccc1NC(=O)c1occc1C	0.6	0.9
CC(NC(=O)Cc1nn[nH]n1)C1=CCCCC1 (stereo not given)	12.5	5.6
COc1ccc(F)cc1C(C)Nc1cncc(Cl)n1 (stereo not given)	-0.9	4.5
Cc1cc(C)cc(NC(=O)C(=O)N2CCCC3(CCNC3)C2)c1 (stereo not given)	17.0	14.4
COCCn1c(C(C)NC(=O)Nc2cccc(C)c2C)nc2ccccc2c1=O (stereo not given)	-5.6	-3.6
COc1ccc(C(O)=C2C(=O)C(=O)N(CCN(C)C)C2c2cccs2)cc1C (stereo not given)	-0.3	-1.4
OCC(Nc1cc(C(F)(F)F)ccn1)c1ccccc1 (stereo not given)	0.8	-1.8
Cc1ccc(C)c(COc2cccn3c(CCNC(=O)c4csc(C)n4)cnc23)c1	13.5	-1.0
CCCCOc1ccc(-c2cc3c(=O)n(CC(=O)NCCc4ccc(Cl)cc4)ccn3n2)cc1	1.1	0.0
COC1CCN(C(=O)c2ccc(N3CCCCCC3)c([N+](=O)[O-])c2)CC1	7.5	10.5
COc1ccc(CNC(=O)c2sc(=O)n(Cc3ccccc3OC(C)=O)c2C)cc1	12.5	4.7
O=S(=O)(c1ccc(I)cc1)N1CCSC1c1ccccc1 (stereo not given)	6.5	0.1
O=C(NC1CCN(c2ccccc2C(=O)NCc2ccco2)CC1)c1cccc(F)c1	-4.4	3.7
NC(=O)Cn1cc(NS(=O)(=O)c2ccc(Br)cc2Cl)cn1	-2.4	0.7
CCN(CC(=O)N1CCc2sccc2C1COc1ccc(C)cc1C)CC(O)Cc1ccccc1 (stereo not given)	2.7	4.1
Cc1cccc(Oc2cc(N3CCN(C(=O)C4CCCCC4)C(C)C3)ncn2)c1 (stereo not given)	3.6	4.1
CCN(CC)S(=O)(=O)c1cc(C(=O)Nc2ccc(OC)cc2)ccc1Cl	3.4	-2.5

# Further records.
compound	NPYLR7 agonist	NPYLR7 agonist max-min
C=CCn1c(N2CCOCC2)nc2c1c(=O)[nH]c(=O)n2C	3.5	-2.3
COCCN(CCOC)C(=O)NC1CC(=O)N(c2ccc(OC)c(OC)c2)C1 (stereo not given)	-3.8	2.3
COc1cccc(Nc2cc(C)nc3c4c(C)cc(C)nc4nn23)c1	1.1	23.1
Cc1ccccc1NC(=O)N1CCN(C(c2ccccc2)c2ccc(Cl)cc2)CC1 (stereo not given)	21.1	14.2
Cc1ccc(-n2nc(C)cc2NC(=O)CC2=CCCCC2)nn1	-0.7	10.3
O=S(=O)(c1ccc2c(c1)nc(SCc1ccc(C(F)(F)F)cc1C(F)(F)F)n2CCCN1CCOCC1)N1CCOCC1	4.8	0.8
O=C(NCc1ccncc1)c1cc(-c2ccc(F)cc2)nn1-c1cccc([N+](=O)[O-])c1	0.3	6.5
Cc1ccccc1C(=O)N(CCCCN1C(=O)c2ccccc2C1=O)c1ccc(Cl)cc1	-16.4	-19.2
CCOc1ccc(S(=O)(=O)CC(=O)NC2CC2)cc1	0.7	0.7
Cc1nn(C)c(C)c1S(=O)(=O)N1CCCN(CC2CC2)C(C(C)C)C1 (stereo not given)	4.4	3.5
CCc1cc(Br)ccc1S(=O)(=O)N1CCCN(Cc2cc(=O)c(OCc3ccc(C(C)(C)C)cc3)co2)CC1	22.0	7.6
O=c1c2nnn(-c3ccc(F)cc3)c2ncn1Cc1ccc(F)cc1	7.6	10.2
Cc1csc(SCC(=O)N(C)C2CCCN(Cc3ccccc3F)C2)n1 (stereo not given)	18.6	8.9
CC(=O)c1cccc(NC(=O)C(C)N2C(=O)c3ccccc3S2(=O)=O)c1 (stereo not given)	8.3	2.7
CC1(C)O[C@@H]2C[C@@](OCc3ccccc3)(C(=O)NCCN3CCOCC3)CC(OCc3ccccc3C#N)[C@@H]2O1 (stereo not given in full)	20.0	7.1
CCOC(=O)C(CC)Sc1ccc(NC(=O)C2CC2)nn1 (stereo not given)	0.8	0.2
CC(O)CNc1ncnc2c1c(-c1ccccc1)cn2-c1ccc(Br)cc1 (stereo not given)	-1.5	-0.1
COc1cc(C=C2SC(=O)N(CCNC(=O)c3ccccc3O)C2=O)cc(OC)c1OC	8.1	13.9
CC1CCC(C(C)C)C(OP(=O)(NC(C)C)c2ccccc2)C1 (stereo not given)	13.9	8.0
CCc1nc2c(OCC(=O)N3CCOCC3)cccn2c1N(C=O)Cc1ccccc1	-3.1	-7.5
CCOC(=O)CC(C)(O)c1cccc(O)c1 (stereo not given)	5.7	4.6
C=C1C(C)(C)[C@H]2CC[C@]1(C(=O)NCc1cc(COC)n[nH]1)C2	0.5	-0.2
O=C(C(c1ccccc1)n1cccc1)N1CCOCC1 (stereo not given)	16.4	14.6
COc1ccccc1NC(=O)N(Cc1ccc(F)cc1)Cc1ccccc1OS(C)(=O)=O	3.8	7.3
Cc1onc(-c2c(Cl)cccc2Cl)c1C(=O)N1CCC(c2nc(-c3ccc4c(c3)OCO4)no2)CC1	5.1	-0.6
Cc1ccccc1NC(=O)c1cc(S(=O)(=O)Nc2cccc(F)c2)ccc1Cl	-12.7	-21.9
C=CCOCC(O)CN(CC=C)CC(=O)N1CCc2sccc2C1COc1ccc(C)cc1C (stereo not given)	-7.8	-5.2
Cn1c(S(=O)(=O)Cc2ccccc2)nc2ccccc21	-3.0	-2.6
CCC(CC)C(=O)N1CCC(NC(=O)NCC(OC)c2ccccc2)CC1 (stereo not given)	1.7	0.8
O=C(N1CCN(S(=O)(=O)c2cccs2)CC1)n1ccnc1	1.8	2.0
O=C(Cn1cnc([N+](=O)[O-])n1)N/N=C\c1cccc([N+](=O)[O-])c1	-7.9	-12.8
Cc1cc(O)c(-c2n[nH]c3c2C(c2ccccc2)N(CCO)C3=O)cc1C (stereo not given)	-10.7	-16.9
O=C(Cn1nc2c(c1NC(=O)c1cc(-c3ccccc3)on1)CSC2)NCc1ccco1	-4.0	3.9
Cc1ccc(-c2nnco2)cc1	7.2	9.9
COc1cc(CNCc2cccnc2)ccc1OCc1ccccc1	-8.2	-10.3
Cn1ccc2cc(C#N)ccc21	8.9	6.6
COCc1ccc(C(=O)N2CCCC(CCC(=O)NCc3ccccc3Cl)C2)o1 (stereo not given)	6.2	2.1
N#Cc1cnc(N2CCC(NC(=O)Nc3ccc(F)cc3)C2)c(Cl)c1 (stereo not given)	10.8	8.9
CN1CCN(c2cc(OCCNS(=O)(=O)c3ccc(F)cc3)ncn2)CC1	-0.2	-2.0
COC(=O)c1cncc(C(=O)OC)c1	-3.0	-6.1
O=S(=O)(c1ccc(CCl)o1)N1CCCC1	5.3	0.8
CN(CCc1ccccn1)C(=O)CCC1CCCN(C(=O)c2c3c(nn2C)CCCC3)C1 (stereo not given)	10.8	1.9
CCc1nc2ccc(C(=O)N(C)Cc3ccccc3)cn2c1N(CC)Cc1cccc(Br)c1	10.7	23.4
O=C1CCc2cc(S(=O)(=O)Nc3ccccc3C(F)(F)F)cc3c2N1CC3	4.6	4.4
CC12CCC(c3c(C(=O)O)nn(-c4ccccc4)c31)C2(C)C (stereo not given)	-2.9	-0.3
O=C1/C(=C/c2ccccc2F)SC(=S)N1CC1CCCO1 (stereo not given)	0.5	1.1
Cc1ccc(CNCC2CC3C=CC2C3)cc1 (stereo not given)	4.8	11.3
Cc1ccc(C(O)=C2C(=O)C(=O)N(CCCN(C)C)C2c2cccc([N+](=O)[O-])c2)cc1 (stereo not given)	3.9	3.9

# Overlap with the part before: four entries, then new ones.
compound	NPYLR7 agonist	NPYLR7 agonist max-min
CC12CCC(c3c(C(=O)O)nn(-c4ccccc4)c31)C2(C)C (stereo not given)	-2.9	-0.3
O=C1/C(=C/c2ccccc2F)SC(=S)N1CC1CCCO1 (stereo not given)	0.5	1.1
Cc1ccc(CNCC2CC3C=CC2C3)cc1 (stereo not given)	4.8	11.3
Cc1ccc(C(O)=C2C(=O)C(=O)N(CCCN(C)C)C2c2cccc([N+](=O)[O-])c2)cc1 (stereo not given)	3.9	3.9
O=C(Nc1ccc(Cl)c(C(F)(F)F)c1)C(c1ccccc1)N1CCCC(O)C1 (stereo not given)	5.3	3.4
COC(=O)CN1CCN(c2nc(C)nc3sc4c(c23)CCCC4)CC1	-2.9	-8.3
CCOc1ccc(NC(=O)N2CCC3(CC2)SCCN3C(=O)COc2ccccc2)cc1	-12.8	-15.7
COc1cccc(C(=O)N(Cc2nccn2Cc2cccc(F)c2)C2CC2)c1	7.7	11.8
CS(=O)(=O)CCCCN=C=S	-9.9	-12.9
Cc1nnc(-c2cc3ccccc3n2CC(=O)NC(C)C)o1	-3.5	-4.0
CCN(C(=O)CSCc1nc(N)nc(N(C)C)n1)C1CCCCC1	-1.1	-3.3
CSC1=NCCN1C(=O)c1cc(Br)cn1C	3.6	2.1
Cc1c(-c2ccccc2F)[nH]c2ccc(CNC(=O)c3ccc(CO)o3)cc12	2.7	0.8
O=C(c1ccc2nonc2c1)N1CCCC2(CCCc3ccccc32)C1 (stereo not given)	12.8	13.5
COc1cc(-c2onc(C)c2C(=O)NCc2cccc(F)c2F)cc(OC)c1OC	28.0	17.3
O=C(Cn1cc(OCc2ccc(F)cc2)c(=O)cc1CO)NC1CCCC1	7.5	5.9
N#Cc1ccccc1NCc1ccc(CN2CCOCC2)cc1	8.0	6.4
Cc1[nH]c2ccc(C(=O)N(C)CC(=O)N(C)C)cc2c1C	-0.5	-0.9
CCOc1ccccc1Oc1coc2c3c(ccc2c1=O)OCN(C1CC1)C3	-10.2	-14.6
